Bioassay records: PubChem, National Center for Advancing Translational Sciences (NCATS)
VDR inh – vitamin D3 receptor (human) inhibition | 400,000 compounds, 0.93% hits | AID 504847 | Potency, µM, inactives show max response, negative = inhibition, usual class: inhibitors | VDR-SRC2-3 peptide fluorescence polarization, 2 h | P11473; active = well fitted inhibition curve with a large enough effect; inconclusive = small, poorly fitted or top-dose-only effect, or another doubt; inactive = no such curve, though single readings can be large or run the other way; also: series mostly up to about 120 µM
Target sequence (P11473 whole entry, looked up): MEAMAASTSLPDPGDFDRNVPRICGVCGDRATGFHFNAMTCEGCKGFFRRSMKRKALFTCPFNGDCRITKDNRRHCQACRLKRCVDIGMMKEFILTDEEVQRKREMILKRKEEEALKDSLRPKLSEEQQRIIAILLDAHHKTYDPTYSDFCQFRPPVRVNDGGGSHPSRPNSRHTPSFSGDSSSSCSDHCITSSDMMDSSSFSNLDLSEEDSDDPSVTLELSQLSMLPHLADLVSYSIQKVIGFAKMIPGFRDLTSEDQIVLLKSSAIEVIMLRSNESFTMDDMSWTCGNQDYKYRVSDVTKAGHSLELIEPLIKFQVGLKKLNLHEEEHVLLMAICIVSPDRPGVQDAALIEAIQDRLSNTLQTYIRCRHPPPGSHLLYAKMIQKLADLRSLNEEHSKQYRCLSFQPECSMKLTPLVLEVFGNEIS
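Reagent solutions, kept cold and dark, are dispensed first; compounds are then pinned in at 23 nl, plates briefly spun, and incubated 2 h at ambient temperature. Inhibition of VDR–SRC2-3 peptide binding is read by fluorescence polarization.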
* marks the source's active call; other numbers are inactive results; u = inconclusive; [ ] = dose if it differs, or a comment. % is scaled to controls: 0 for no effect and ±100 for the full control effect; potency is read from the fitted curve at half-maximal effect.

SMILES | VDR inh
COc1ccc(N(CC(=O)N2CCc3ccccc32)S(=O)(=O)c2c(C)nn(C)c2C)cc1 | 2.2%
Cc1ccc(S(=O)(=O)Nc2nc(C)cc(NCCN)n2)cc1 | -20.1%
Cc1ccc(C)c(NCC(=O)c2ccc(Cl)cc2)c1 | -12.0%
OCCN=C(c1ccccc1)C12CN3CN(CN(C3)C1)C2 | -0.4%
CCc1noc(C)c1C(=O)N1CCSC1=Nc1cccc(Cl)c1C | u
COCCNC(=O)C(=O)N/N=C(\C)CC(=O)Nc1cccc(C(F)(F)F)c1 | -2.8%
Nc1ccc2c(c1)C(=O)N(c1ccc3ccccc3c1)C2=O | -8.6%
CCCCOc1ccc(C(=O)NCC(=O)NCCOc2ccccc2)cc1 | 2.9%
CCOC(=O)c1ccc(NC(=O)Nc2ccc(Cl)cn2)cc1 | -3.9%
N#C/C(=C\c1cn(CCOc2ccccc2)c2ccccc12)C(=O)NCC1CCCO1 (stereo not drawn) | -21.2%
CCOc1ccccc1NC(=O)C1C2C=CC(C2)C1C(=O)O (stereo not drawn) | -2.3%
COc1ccc(CCNS(=O)(=O)c2ccc3c(c2)OCCO3)cc1 | -4.6%
O=C(Cc1ccc(NC(=O)C2CCCN(C(=O)C3CC3)C2)cc1)Nc1cccc(C(=O)N2CCCCC2)c1 (stereo not drawn) | -4.7%
N#Cc1ccccc1OCC(=O)NNC(=O)CNC(=O)c1cccc(Br)c1 | -1.2%
COc1ccc(NC(=O)CCc2nc3ccccc3s2)c(OC)c1 | 31.8%[activator]
CC1C(=O)N2CCCc3cc(S(=O)(=O)Nc4ccc(Br)cc4F)cc1c32 (stereo not drawn) | -3.7%
CC1CCN(c2nnc(-c3cccs3)c3ccccc23)CC1 | 1.7%
CCOc1cccc(C2/C(=C(/O)c3ccc4c(c3)CC(C)O4)C(=O)C(=O)N2Cc2cccnc2)c1 (stereo not drawn) | 16.5%
CCOC(=O)C(C)n1cnc2c(nnn2Cc2ccc(Cl)cc2)c1=O (stereo not drawn) | -14.5%
CN(/C=C/C(=C/C=[N+](C)c1ccccc1)OCCCS(=O)(=O)[O-])c1ccccc1 | 4.7%
COc1ccccc1N1CCN(Cc2cc(COC(C)C)c3cccnc3c2O)CC1 | -2.8%
CCOC(=O)c1cccc(NC(=O)C2CCN(c3ncnc4c3nc3n4CCCCC3)CC2)c1 | 18.6%
O=C(NCCc1ccc(Cl)cc1)c1cnc2sc(N3CCCC3)nn2c1=O | 4.7%
O=C(NNS(=O)(=O)c1ccccc1)C1CCN(S(=O)(=O)c2ccccc2)CC1 | -7.1%
CC(/C=N/Nc1ncc(C)c(=O)[nH]1)=C\c1ccccc1 | -17.3%
O=C(COc1ccc([N+](=O)[O-])cc1)NC(=O)NC1CCS(=O)(=O)C1 (stereo not drawn) | 2.7%
Cc1cc(NC(=O)c2ccno2)no1 | 6.3%
CCN(CC)CCNC(=O)C(Oc1ccccc1)Oc1ccccc1 | 1.0%
CC(=O)c1cccc(NC(=O)c2ccc(NS(=O)(=O)c3c(C)noc3C)cc2)c1 | -11.0%
CCc1cccc(NC(=O)C2CCN(S(=O)(=O)c3cccc(-c4noc(C)n4)c3)CC2)c1 | 22.4%
Cc1ccccc1C(=O)NCC(=O)NCC1(N2CCOCC2)CCCCC1 | -22.4%
CN(Cc1ccco1)c1ncnc2ccc(-c3cccc(C#N)c3)cc12 | u
CCOC(=O)C1=C(C)NC(=O)NC1c1ccc(OC(=O)c2ccco2)c(OC)c1 (stereo not drawn) | 0.0%
Cc1nc(NC(=O)COC(=O)c2ccc(CO)cc2)c(Cl)cc1Cl | 0.6%
CC(C)(C)C1CCC(=O)C(C2(O)C(=O)Nc3ccccc32)C1 (stereo not drawn) | -0.4%
Cc1cc(NC(=O)CCC(=O)N(CC(=O)NCC2CCCO2)c2ccc(Cl)c(Cl)c2)no1 (stereo not drawn) | -9.7%

A different layout for some results above:
CCc1cccc(NC(=O)C2CCN(S(=O)(=O)c3cccc(-c4noc(C)n4)c3)CC2)c1
  VDR inh: 22.4%

Cc1ccccc1C(=O)NCC(=O)NCC1(N2CCOCC2)CCCCC1
  VDR inh: -22.4%

CN(Cc1ccco1)c1ncnc2ccc(-c3cccc(C#N)c3)cc12
  VDR inh: u

CCOC(=O)C1=C(C)NC(=O)NC1c1ccc(OC(=O)c2ccco2)c(OC)c1 (stereo not drawn)
  VDR inh: 0.0%

Back to the main list, repeating the two entries before the break.
SMILES | VDR inh
CC(C)(C)C1CCC(=O)C(C2(O)C(=O)Nc3ccccc32)C1 (stereo not drawn) | -0.4%
Cc1cc(NC(=O)CCC(=O)N(CC(=O)NCC2CCCO2)c2ccc(Cl)c(Cl)c2)no1 (stereo not drawn) | -9.7%
CSc1ccccc1NC(=O)c1ccccn1 | -4.4%
S=c1[nH]nc(-c2cc(-c3ccsc3)n[nH]2)n1-c1ccccc1 | -13.0%
COc1ccc([N+](=O)[O-])cc1N(CC(=O)NC(C(C)C)C(C)C)S(C)(=O)=O | 17.5%
COc1ccc(/C=C/C(=O)NC(=S)Nc2ccccc2)cc1OC | -2.6%
COC(=O)c1coc(-c2ccc(C)cc2)c1C(=O)OC | -5.7%
Cc1c(CCC(C)C)c(-n2ccnc2C)n2c(nc3ccccc32)c1C#N | -15.9%
C#CCO[C@@H]1C[C@H](n2cnc3c(NC(=O)c4ccccc4)ncnc32)O[C@@H]1CO | 0.8%
Fc1ccc(CN2CCSCC2)cc1F | -4.3%
O=C1C(Cl)=C(O)C2(Cl)C(Cl)=C(Cl)C12Cl (stereo not drawn) | 2.8%
COc1cccc(Nc2nc(NCCO)nc(N3CCCC3)n2)c1 | -12.2%
Cc1cccc(C(=O)NCC(=O)NC(C)CCc2ccccc2)c1 (stereo not drawn) | 2.9%
Cc1csc(NC(=O)Nc2ccccc2[N+](=O)[O-])n1 | 13.0%
Cc1ccc(S(=O)(=O)N2CCCC2CNC(=O)C(=O)NCc2cccs2)cc1 (stereo not drawn) | -8.0%
Cc1ccccc1NC(=S)NNc1ncc(C(F)(F)F)cc1Cl | -11.9%
Cc1ccc(CN(C(=O)COc2ccc(C(C)(C)C)cc2)C2CCS(=O)(=O)C2)o1 (stereo not drawn) | 7.1%
CCCCC(=O)N(Cc1ccc(-c2ccccc2-c2nn[nH]n2)cc1)C(C(=O)O)C(C)C (stereo not drawn) | -10.5%
CCn1nc(C(=O)OCC(=O)Nc2ncc(Cl)c(C)c2Cl)c2ccccc2c1=O | -17.3%
Cc1ccc(C(C(=O)NC2CCCCC2)N(C(=O)c2csnn2)c2ccccc2F)o1 (stereo not drawn) | 2.1%
C/C(=N\NC(=O)c1ccc(-n2cnnn2)cc1)c1ccc(Cl)cc1 | -10.3%
CCOc1ncccc1C(=O)OC(C)C(=O)Nc1ccc(Cl)cn1 (stereo not drawn) | -6.1%
O=[N+]([O-])c1ccccc1S(=O)(=O)N1CCSCC1 | 1.2%
O=C(NC(Nc1ccc(F)cc1)(C(F)(F)F)C(F)(F)F)c1cccnc1 | 6.7%
Cc1cc(C)c(C#N)c(SCc2cn3c(C)cccc3n2)n1 | 15.8%
NS(=O)(=O)c1ccc(CNC(=O)c2ccc(S(=O)(=O)C(F)F)cc2)cc1 | 1.9%

Reprinted from the results shown (three entries):
SMILES | VDR inh
O=C(NC(Nc1ccc(F)cc1)(C(F)(F)F)C(F)(F)F)c1cccnc1 | 6.7%
Cc1cc(C)c(C#N)c(SCc2cn3c(C)cccc3n2)n1 | 15.8%
NS(=O)(=O)c1ccc(CNC(=O)c2ccc(S(=O)(=O)C(F)F)cc2)cc1 | 1.9%

New compounds follow
SMILES | VDR inh
Cc1ccc(NC(=O)CNC2CCS(=O)(=O)C2)cc1C (stereo not drawn) | -2.9%
Cc1ccc(S(=O)(=O)N2CCN(c3nc(C(N)=O)nc4ccccc34)CC2)cc1 | -9.5%
CNC(=O)c1ccc2nc(-c3ccccc3)c(-c3ccccc3)nc2c1 | -1.5%
Cc1nc(NC(=O)c2ccccc2)sc1-c1csc(N)n1 | -20.9%
COC(=O)C(C)NS(=O)(=O)c1ccc(NC(C)=O)cc1 (stereo not drawn) | 18.6%
O=C(NCc1ccccn1)c1ccc(OC2CCN(Cc3ccc(Cl)s3)CC2)cc1 | 1.7%
COc1cc2c(cc1OC)C(COc1ccc(C(C)C)cc1)N(C(=O)c1ccc(S(=O)(=O)N3CCCC3)cc1)CC2 (stereo not drawn) | 4.3%
Cc1ccccc1OCC(=O)OCn1nnc2ccccc2c1=O | -6.6%
Cc1ccc(NS(=O)(=O)c2ccc(-n3cccn3)cc2)cc1F | 8.3%
Cc1ccc(SCC(=O)N(C)CC(=O)Nc2cccc(F)c2)cc1 | -14.1%
CCOc1ccc(NC(=O)CCn2c(=O)c3cccn3c3cccnc32)cc1 | 6.0%
C=CCN(c1ccccc1)S(=O)(=O)c1ccc(Cl)c(C(=O)OCC(=O)N(C)C2CCS(=O)(=O)C2)c1 (stereo not drawn) | -4.1%
C=C(C(C)=O)C(O)c1cccc(Br)c1 (stereo not drawn) | -4.6%
Cc1cc2c(cc1S(=O)(=O)Nc1cccc(C)c1C)OCC(=O)N2 | -2.7%
CCOC(=O)N1CCN(C(=O)CN(Cc2ccc(Cl)cc2)S(=O)(=O)c2ccccc2)CC1 | -21.2%
Cc1nc2c3c4c(sc3n3c(SCC(=O)NCc5ccco5)nnc3n2n1)COC(C)(C)C4 | 3.9%
COc1ccccc1CNc1ccnc(-c2ccoc2)n1 | u
Cc1nn(Cc2ccc(Cl)cc2Cl)c(C)c1NC(=O)C1C2CCC(O2)C1C(=O)O (stereo not drawn) | -23.1%
Cc1ccc(-c2noc(-c3ccccc3OCC(=O)Nc3ccccc3[N+](=O)[O-])n2)cc1 | 0.4%
Cn1ncc(N=Cc2ccc([N+](=O)[O-])cc2)c1C(=O)Nc1ccccc1 | 16.0%
COc1ccc2c3c([nH]c2c1)C(C)N(CCC(=O)NN)CC3 (stereo not drawn) | -0.7%
CCCn1c(N)nc2ccccc21 | 3.3%
Cc1cccc(NC(=O)c2oc3ccccc3c2NC(=O)Cc2coc3ccc(C(C)C)cc23)c1 | 2.2%
O=C(c1ccc(S(=O)(=O)NCc2ccco2)cc1)N1CCN(Cc2ccc3c(c2)OCO3)CC1 | -9.8%
COc1ccc(CNC(=O)c2cc(=O)[nH]c3ccc(S(=O)(=O)N4CCCC4)cc23)c(OC)c1 | 8.7%
O=C(Nc1cccc2ccccc12)N1CC=CCC1 | 4.6%
Cc1cc(Cl)ccc1OC(C)C(=O)NCCc1ccc2c(c1)OCCO2 (stereo not drawn) | 1.6%
CCn1cc(CCCC(=O)NCc2ccc(OC)cc2)c2ccccc21 | 7.4%
Clc1ccc(Cn2c(/C=C/c3ccco3)nc3ccccc32)cc1 | -29.2%
O=C(CSc1nnc2ccccn12)NC(=O)NC1CCCCC1 | -10.3%
O=C(O)/C=C/C(=O)Nc1ccc(NC(=O)c2ccccc2)c(Cl)c1 | 8.3%
CCNC(=O)C1CCN(c2nc3ccccc3nc2C(F)(F)F)CC1 | 9.7%
CCC(Sc1nc(C)cc(=O)[nH]1)C(=O)Nc1ccc(Cl)cn1 (stereo not drawn) | u
Cc1cc(-c2nc(-c3ccc(C(C)(C)C)cc3)no2)no1 | -5.5%
COc1ccc(CCNC(=O)Cn2cc(S(=O)(=O)Cc3ccccc3F)c3ccccc32)cc1OC | 8.2%
O=S(=O)(c1ccc(Cl)c(C(F)(F)F)c1)N1CCN(c2ccccn2)CC1 | 2.5%

Part of the list above, with each value named.
CCn1cc(CCCC(=O)NCc2ccc(OC)cc2)c2ccccc21
  VDR inh: 7.4%

CCNC(=O)C1CCN(c2nc3ccccc3nc2C(F)(F)F)CC1
  VDR inh: 9.7%

(further entries)
SMILES | VDR inh
O=C(NCCc1ccccc1)C1CCN(c2nc3ccccc3o2)CC1 | 11.5%
Cc1nc(CCNC(=O)c2cc(COc3ccc(F)cc3Cl)on2)sc1C | -16.5%
COc1ccc(CCN2CN(S(=O)(=O)c3ccc(C)cc3)c3nc4ccccc4nc32)cc1OC | -16.4%
O=C(CN1C(=O)C2C3C=CC(C3)C2C1=O)OCC(=O)c1ccc([N+](=O)[O-])cc1 (stereo not drawn) | -11.5%
CS(=O)(=O)N1N=C(c2cccs2)CC1c1ccccc1O (stereo not drawn) | 5.8%
C[C@@]12C(=O)N(c3cccc(F)c3)C(=O)N1[C@H](c1ccc(F)cc1)[C@@H]1C(=O)N(C3CCCCC3)C(=O)[C@@H]12 | -14.4%
CCOC(=O)c1ccc(NC(=O)CSc2nccn2-c2cc(C)cc(C)c2)cc1 | 10.9%
COC(=O)c1c(-c2cccs2)csc1NC(=O)c1ccc(OC)c(OC)c1 | u
COc1ccc(OC)c(CNC(=O)c2ccc(Sc3ccc(Cl)cc3)c(NC(C)=O)c2)c1 | 3.1%
COc1cc(C2c3cc4c(cc3OC(NCCc3ccccc3)C2C)OCO4)cc(OC)c1OC (stereo not drawn) | -4.2%
O=C(CN1CCOCCOCCN(CC(=O)Nc2ccccc2)CCOCC1)Nc1ccccc1 | 5.5%
O=C(Nc1ccc2c(c1)OCO2)c1ccc(CN2CCOCC2)cc1 | -10.4%
O=C(Nc1ccc2c(c1)OCO2)c1cc(-c2ccncc2)nc2ccccc12 | -7.6%
C=CCn1c2ccccc2c2nnc(SCCCn3c(=O)[nH]c4ccccc43)nc21 | -3.2%
CC(C)(C)n1ncc2c(=O)n(CC(=O)NCc3ccccc3)cnc21 | -0.6%
COc1ccc(OC)c(N(CC(=O)N2CCOCC2)S(C)(=O)=O)c1 | 19.6%
CCOC(=O)C(CC(=O)O)=C(c1ccccc1)c1ccccc1 | -13.4%
CC(=O)c1sc(N/N=C/c2cccc([N+](=O)[O-])c2)nc1C | -3.6%
CCn1nc(C)c2c(-c3ccccc3)cc(=O)n(C(C)C(=O)NCc3cccc(OC)c3)c21 (stereo not drawn) | 20.1%

These rows are one share of the data (hit frequency here may not be typical).
